LASV entry inh: inhibitors of Lassa virus binding or entry into cells; Lassa virus pseudotyped entry inhibition, cell-based qHTS; control for the full effect not named in the record; many of its hits are not listed in these tables; Potency, µM (titrated, usually from 49.2 µM), without a hit: at the highest dose activity change, negative = inhibition, hits mostly inhibitors; 4.1% of 18,000 active; AID 720533; active = well fitted inhibition curve with a large enough effect; inconclusive = small, poorly fitted or top-dose-only effect; inactive = no such curve, though single readings can be large or run the other way; tested in HEK293 cells; also: luciferase read-out
MARV entry inh: Marburg virus entry inhibition; Marburg virus pseudotype entry/binding inhibition, cell-based; control for the full effect not named in the record; many of its hits are not listed in these tables; Potency, µM (doses to about 49.2 µM), inactives show at the highest dose activity change, negative = inhibition, most hits filed as inhibitors; 6.5% of 18,000 active; AID 720532; active means well fitted inhibition curve with a large enough effect; inconclusive means small, poorly fitted or top-dose-only effect; inactive means no such curve, though single readings can be large or run the other way; tested in HEK293 cells; also: luciferase read-out
Active calls of the source: *; ? = inconclusive; nt = no result given; & = joins results of further samples; [ ] = dose if it differs, or a comment. % is scaled to controls: 0 for no effect and ±100 for the full control effect; potency is read from the fitted curve at half-maximal effect.

SMILES | LASV entry inh | MARV entry inh
CN(C)[C@@H]1C(=O)C(C(=O)NCN2CCCC2)=C(O)[C@@]2(O)C(=O)C3=C(O)c4c(O)cccc4[C@@](C)(O)C3C[C@@H]12 (stereo not given in full) | 5%[17.8 µM] | ?
CP(=O)(O)CCCN | -4%&-5% | 9%&-5%
c1ccc(CNc2ccnc(-c3ccoc3)n2)cc1 | 26% | 13%
CCNC(=O)[C@@H]1CCCN1C(=O)[C@H](CCCN=C(N)N)NC(=O)[C@H](CC(C)C)NC(=O)[C@@H](CC(C)C)NC(=O)[C@H](Cc1ccc(O)cc1)NC(=O)[C@H](CO)NC(=O)[C@H](Cc1c[nH]c2ccccc12)NC(=O)[C@H](Cc1cnc[nH]1)NC(=O)[C@@H]1CCC(=O)N1 | -17% | 13%
CCOC(=O)/C=C/CCC/C=C/C(=O)c1ccccc1 | -20% | -9%
CC(CC(C)(C)C)CP(=O)(O)CC(C)CC(C)(C)C (stereo not given) | ? | ?
CC(C)C[C@@H]1COc2cc(NC3CC3)ccc2S(=O)(=O)N1 | 4% | 20%
COc1ccc(O[C@H]2C=C[C@@H](c3ccccc3)O[C@H]2CON=C2c3cc(OC)ccc3O[C@H](c3cccc(OC)c3)[C@H]2O)cc1 | ? | ?
CCc1nc2cc(C(=O)N3CCCN(C=O)CC3)cc(NC(=O)c3ccccc3OC)c2n1C | -3% | ?
C/C=C/C=C/C(=O)O | -5% | 10%
COCc1c(C(=O)N2CCN(C3CCCC3)CC2)cnn1-c1ncc2c(n1)-c1ccccc1CCC2 | -26% | -3%
CCOC(=O)CN1C(=O)[C@]2(OCCC=C[C@@H]2C)c2c(Br)cccc21 | 21%[8.59 µM] | -20%[8.59 µM]
COc1ccc(-c2coc3c(O)c(OC)ccc3c2=O)cc1 | -28% | 19%
OCC1CCCN(c2nc3cc4c(cc3cc2CNCc2cccc(C(F)(F)F)c2)OCO4)C1 (stereo not given) | 19% | -7%
Cc1cc(C)n2nc(C(=O)NCC3Cc4cccc(-c5ccc(S(C)(=O)=O)cc5)c4O3)cc2n1 (stereo not given) | ? | -2%

Reprinted from the part before: 4 compounds, followed by the next part.
SMILES | LASV entry inh | MARV entry inh
CCOC(=O)CN1C(=O)[C@]2(OCCC=C[C@@H]2C)c2c(Br)cccc21 | 21%[8.59 µM] | -20%[8.59 µM]
COc1ccc(-c2coc3c(O)c(OC)ccc3c2=O)cc1 | -28% | 19%
OCC1CCCN(c2nc3cc4c(cc3cc2CNCc2cccc(C(F)(F)F)c2)OCO4)C1 (stereo not given) | 19% | -7%
Cc1cc(C)n2nc(C(=O)NCC3Cc4cccc(-c5ccc(S(C)(=O)=O)cc5)c4O3)cc2n1 (stereo not given) | ? | -2%
COc1cc(O)c(C(=O)/C=C/c2ccc(OC)c(O)c2)c(OC)c1 | 80%[activator] | ?
C=C1CCC(O)C/C1=C/C=C1\CCC[C@]2(C)[C@@H]([C@H](C)CCCC(C)C)CC[C@@H]12 (stereo not given in full) | -16% | -17%
COc1ccc(O)c(CN2CCC3(CCC(CNC(=O)C4CCCO4)O3)CC2)c1 (stereo not given) | 0% | ?
CN(C)c1ccc(N=NS(=O)(=O)O)cc1 | 9%[107 µM] | 28%[107 µM]
C[C@H]1CC[C@@H]2[C@@H](C)[C@H]3[C@H](C[C@H]4[C@@H]5CC=C6CC(O[C@@H]7O[C@H](CO)[C@H](O)[C@H](O[C@@H]8O[C@H](CO)[C@@H](O)[C@H](O)[C@H]8O)[C@H]7O[C@H]7O[C@@H](C)[C@H](O)[C@@H](O)[C@H]7O)CC[C@]6(C)[C@H]5CC[C@]34C)N2C1 (stereo not given in full) | 32µM* | 16µM*
Cc1ccc2c(n1)Oc1ccc(C(C)C(=O)OCC(=O)N(C)C)cc1C2 (stereo not given) | 2%&45% | 26%&72%
CCN1C(=NCc2cccc(Cl)c2)N[C@@H](CCc2ccccc2)[C@H](C(=O)OC)[C@H]1C | -21%[8.59 µM] | 65%[activator][8.59 µM]
CC(C)(C)C(=O)OCOC(=O)[C@@H]1N2C(=O)[C@@H](NC(=O)[C@H](N)c3ccccc3)[C@H]2SC1(C)C | -17%[17.8 µM] | -16%[17.8 µM]
COC(=O)c1c(OCc2ccccc2)cc(=O)n2c1CCN(Cc1cccc(C)n1)CC2 | -17% | 12%
O=C1C2=C(C(=O)c3ccccc31)[C@H]1O[C@](CCCCN3C(=O)c4ccccc4C3=O)(Cc3c1ccc1ccccc31)O2 | 10%[8.59 µM] | ?
CC(C)=CCC1C(=O)N(c2ccccc2)N(c2ccccc2)C1=O | ? | ?
COC[C@H]([C@@H](O)[C@@H](O)C(=O)NCC[C@@H](C)c1nc(/C=C/C[C@H]2OC3(C[C@H](O)[C@H]2C)OC([C@@H](C[C@@H](O)[C@@H](C)[C@@H](O)[C@@H](C)/C=C(C)/C(C)=C/C=C/C(C)=C\C#N)OC)[C@@H](OP(=O)(O)O)C3(C)C)co1)N(C)C (stereo not given in full) | 71µM* | 0.11µM*
CC(C)(C)NCC(O)c1cc(Cl)c(N)c(Cl)c1 (stereo not given) | ? | 12%&2%&-11%
CN(Cc1ccco1)c1ncnc2ccc(-c3ccc4c(c3)OCO4)cc12 | -14% | -21%
CC12C=C(C=Cc3ccc(C(F)(F)F)cc3)C(C)(C1)C(c1ccc(C(F)(F)F)cc1)CC2=O (stereo not given) | -1%[8.59 µM] | 6%[8.59 µM]
CC(=O)OC1CC(OC(C)=O)[C@]2(C)C(CC(OC(C)=O)[C@]3(C)C2CC[C@@]2(C)C(c4ccoc4)C(=O)C4O[C@]432)C1(C)C (stereo not given in full) | -16% | 16µM*
COCOCCn1cc(CN2CCS(=O)(=O)N(Cc3ccc(-c4ccc(F)nc4)cc3)C(CC(C)C)C2=O)nn1 (stereo not given) | 7% | -11%
COc1c2c(cc3c1C(CC(=O)c1c(O)c(OC)c4occc4c1OC)[N+](C)(C)CC3)OCO2 (stereo not given) | 3% | ?
O=C1C[C@@H]2CCN3C(=O)CCC[C@@H]([C@H]23)[C@H]1Cc1ccccc1 | -1% | 12%
COCC=CC1=CC2=CC(=O)C(C)(OC(=O)c3cnc4ccccc4n3)C(=O)C2=CN1CCc1c[nH]c2ccccc12 (stereo not given) | -11%[8.59 µM] | 22%[8.59 µM]
OC[C@@H]1[C@@H](c2ccc(F)cc2)C(c2cccc(Cl)c2)=NN1c1ccccc1 | -25% | ?
CC(O)CO (stereo not given) | -10% | 6%
O=Nc1ccc(O)c2ncccc12 | 2.5µM* | 4µM*
COC1C(O)C(CO)OC1n1c(Br)nc2c(=O)[nH]c(N)nc21 (stereo not given) | -4% | 0%
Clc1c(Cl)c(Cl)c(Cl)c(Cl)c1Cl | 1% | 28%
O=c1c2ccccc2oc2cc(O)c(C3COCC(CO)C(O)C(O)C3O)c(O)c12 (stereo not given) | -7% | 14µM*
COc1c(Cl)ccc(Cl)c1C(=O)O | 1% | 6%
COc1ccc(CN2CCC3(CCC(CNC(=O)c4ccnn4C)O3)CC2)c(C)c1C (stereo not given) | -2% | ?
CC(=O)OC[C@H]1O[C@H](CCON=C(C)CCC(=O)OC[C@H]2O[C@H](C#Cc3ccccc3)C=C[C@H]2Oc2ccc(C)cc2)C=C[C@H]1OC(C)=O | 5%[8.59 µM] | 21%[8.59 µM]
Fc1ccc(-c2ncn(C3CCNCC3)c2-c2ccnc(Oc3ccc4c(c3)OCO4)n2)cc1 | ? | 6.3µM*
CC(C)c1cc2c(c(O)c1O)[C@]1(C(=O)O)CCCC(C)(C)C1CC2 (stereo not given in full) | ? | 3%
CC(C)=CCN1C(=O)C2(CC(C)=C[C@@H](C)O2)c2c(Br)cccc21 (stereo not given in full) | -13%[8.59 µM] | 11%[8.59 µM]
CC/C=C\C/C=C\C/C=C\C/C=C\C/C=C\C/C=C\CCC(N)=O | -5% | -12%
CC1=CCCC2C1(C)CCC(C)C2(C)CC/C(C)=C/C[n+]1cn(C)c2c(N)ncnc21 (stereo not given) | 16% | -12%
COc1ccc(-c2nn3ncccc3c2-c2ccnc(Nc3ccc4c(c3)OCCO4)n2)cc1 | ? | 7.1µM*
N#CC(C#N)=Cc1cc(O)c(O)c([N+](=O)[O-])c1 | 1%&1% | 3%&-13%
COc1cc(OC)c2ccc(=O)oc2c1 | -5% | -2%
NC(=S)N/N=C/c1cccnc1 | 4% | -5%
O=C(Nc1ccc(C(=O)N2CCOCC2)cc1)C1CCCC1 | 5% | 28%
CNc1ncnc2c1ncn2[C@@H]1O[C@H](CO)[C@@H](O)[C@H]1O | -23% | -13%
COC(=O)C1(C(=O)OC)CC(CO)C(=O)[C@H]1c1ccccc1 (stereo not given in full) | 5%&-1% | 0%&-7%
CC1(C)CCC(C)(C)c2cc(C(=O)Nc3ccc(C(=O)O)cc3)ccc21 | 0%&-6%&-15%&-4% | 10%&-2%&-18%&7%
CC#CCC(C)[C@H](O)/C=C/[C@@H]1[C@H]2C/C(=C/CCCC(=O)O)C[C@H]2C[C@H]1O (stereo not given in full) | -20% | ?
CCCN(CCC)Cc1cc(=O)oc2cc(OC)ccc12 | -9% | -9%
COc1ccc2c(c1)OC(C)CN(CCNC(=O)c1cc3cc(F)ccc3[nH]1)C2 (stereo not given) | -17% | -6%
CC1(O)C(=O)C=C2C=C(c3ccc(C#N)cc3)OC=C2C1=O (stereo not given) | 20% | -3%
COCOCCn1cc(CN2CCS(=O)(=O)N(Cc3ccc(-c4cccc(CO)c4)cc3)C(C)C2=O)nn1 (stereo not given) | -24% | 10%
C[C@]12CCC(=O)C=C1CC[C@@H]1[C@@H]2[C@@H](O)C[C@@]2(C)[C@H]1CC[C@]2(O)C(=O)COC(=O)CCC(=O)O | 7% | 8%
COc1ccccc1C=CC1=CC2(C)CC1(C)C(c1ccccc1OC)CC2=O (stereo not given) | 6%[8.59 µM] | -29%[8.59 µM]
COC(=O)C1=C(C(=O)OC)[C@@H]2N(Cc3ccccc3)c3ccccc3[C@@]23CCC(=O)N(CC2CCCCC2)C3=N1 | 3%[8.59 µM] | 11%[8.59 µM]
C[C@H]1C=CCC(=O)NCc2cccc(c2)CNC(=O)N[C@@H]1c1ccccc1 | 7%[8.59 µM] | ?
COC(=O)CCN(Cc1cccc(OC)c1OC)S(=O)(=O)c1ccccc1Br | nt | 16%
COc1ccc(/C=N/NC(=O)c2ccncc2)c(C(=O)O)c1OC | -12% | -15%
CCCCCC(O)c1cccc(OCc2ccc3ccccc3n2)c1 (stereo not given) | 12%&8% | 29%&-11%
CCC1CN(CC(=O)N(C)Cc2nc3ccccc3[nH]2)Cc2cc(OC)ccc2O1 (stereo not given) | -2% | -13%
N#CC(O[C@@H]1OC(COC2OC(CO)C(O)C(O)[C@@H]2O)C(O)C(O)C1O)c1ccccc1 (stereo not given in full) | 7% | 9%
COCC(=O)Nc1cc(C(=O)N2CCN(C)C(c3ccccc3)C2)c2c(c1)nc(-c1ccncc1)n2C (stereo not given) | -4% | 16%

Compounds from the list above containing an NH in an aromatic ring:
SMILES | LASV entry inh | MARV entry inh
CCNC(=O)[C@@H]1CCCN1C(=O)[C@H](CCCN=C(N)N)NC(=O)[C@H](CC(C)C)NC(=O)[C@@H](CC(C)C)NC(=O)[C@H](Cc1ccc(O)cc1)NC(=O)[C@H](CO)NC(=O)[C@H](Cc1c[nH]c2ccccc12)NC(=O)[C@H](Cc1cnc[nH]1)NC(=O)[C@@H]1CCC(=O)N1 | -17% | 13%
COCC=CC1=CC2=CC(=O)C(C)(OC(=O)c3cnc4ccccc4n3)C(=O)C2=CN1CCc1c[nH]c2ccccc12 (stereo not given) | -11%[8.59 µM] | 22%[8.59 µM]
COC1C(O)C(CO)OC1n1c(Br)nc2c(=O)[nH]c(N)nc21 (stereo not given) | -4% | 0%
COc1ccc2c(c1)OC(C)CN(CCNC(=O)c1cc3cc(F)ccc3[nH]1)C2 (stereo not given) | -17% | -6%
CCC1CN(CC(=O)N(C)Cc2nc3ccccc3[nH]2)Cc2cc(OC)ccc2O1 (stereo not given) | -2% | -13%

Assay outcomes as filed in PubChem BioAssay.
